Polio RdRp inh = poliovirus RNA polymerase inhibition; P03300; poliovirus polymerase elongation, fluorescence polarization; active compounds read low; % elongation, % (compound at 16.7 µg/mL); 0.66% of 150,000 active; in the data active = % elongation below about 90%; also: some results filed as inactive read as strong as hits
Target sequence (P03300 1749-2209 limits assumed): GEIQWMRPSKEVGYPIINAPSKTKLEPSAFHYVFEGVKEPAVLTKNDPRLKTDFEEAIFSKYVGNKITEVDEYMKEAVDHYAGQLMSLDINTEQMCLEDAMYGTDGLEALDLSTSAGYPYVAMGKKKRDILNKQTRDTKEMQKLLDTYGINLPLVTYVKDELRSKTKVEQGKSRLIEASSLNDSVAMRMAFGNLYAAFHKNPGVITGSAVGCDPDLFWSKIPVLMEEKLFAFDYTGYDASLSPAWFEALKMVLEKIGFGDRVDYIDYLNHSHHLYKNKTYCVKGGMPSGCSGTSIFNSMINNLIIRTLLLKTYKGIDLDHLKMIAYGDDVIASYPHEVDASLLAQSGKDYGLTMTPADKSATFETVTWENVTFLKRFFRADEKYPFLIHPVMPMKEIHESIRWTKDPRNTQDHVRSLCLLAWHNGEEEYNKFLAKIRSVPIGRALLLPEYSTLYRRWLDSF
MbtI inh = MbtI salicylate synthase inhibition; 0.89% of 100,000 active; inhibition, %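 (about 17 µg/mL by stock and volumes)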; purified MbtI enzyme, fluorescence intensity read-out;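 active = above 50% in both replicates, above 80% if mildly self-fluorescent; inactive = the rest, strongly fluorescent compounds included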;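 also: 0% = mean of negative and 100% = mean of positive controls; one replicate is shown; some compounds called inactive have numbers as strong as hits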
Target sequence (P9WFX0 whole entry, looked up): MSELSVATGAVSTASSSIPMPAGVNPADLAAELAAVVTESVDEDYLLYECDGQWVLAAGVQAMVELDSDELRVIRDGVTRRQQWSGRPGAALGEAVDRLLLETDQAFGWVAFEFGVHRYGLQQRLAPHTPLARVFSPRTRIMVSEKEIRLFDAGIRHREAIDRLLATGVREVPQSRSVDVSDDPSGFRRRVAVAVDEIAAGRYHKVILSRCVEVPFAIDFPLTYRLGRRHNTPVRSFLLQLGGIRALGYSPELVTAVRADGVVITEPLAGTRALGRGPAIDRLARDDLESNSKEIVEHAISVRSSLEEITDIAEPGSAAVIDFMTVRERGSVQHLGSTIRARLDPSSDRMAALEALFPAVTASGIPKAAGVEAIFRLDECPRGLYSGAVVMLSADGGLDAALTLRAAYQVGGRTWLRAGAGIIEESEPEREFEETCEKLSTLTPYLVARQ
Mtb MenB inh = blocks the Mycobacterium tuberculosis MenB enzyme | MenB enzyme assay, absorbance read-out; some hits fall short of the stated cut | 0.43% of 100,000 active | inhibition, %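 (about 12 µg/mL by stock and volumes)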 | P9WNP5;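 active = mean of two replicates above 30%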;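 also: 0% = no compound and 100% = wells with inactive enzyme; the first replicate is given; strong numbers were not always called active; inactives centre near -10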
Polio RdRp inh intensity = further read-out of Polio RdRp inh, marked with its call; % elongation; measured here: total intensity read-out; formula for this scale not given here;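 total fluorescence in place of polarization; lower means less elongation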
Starred values were filed as active, the others as inactive; & = joins results of further samples.

Results for N#Cc1nc2c(-c3nc4ccccc4[nH]3)c(N)n(Cc3ccccc3)c2nc1C#N ?
Polio RdRp inh: 102; MbtI inh: -10; Mtb MenB inh: 2; Polio RdRp inh intensity: 110

How did Cc1cc(C)c(C#N)c(SCSCc2ccccc2)n1 do in these assays?
Polio RdRp inh: 105; MbtI inh: 7; Mtb MenB inh: -14; Polio RdRp inh intensity: 102

How did CN(C)c1ccc(C(CNC(=S)NCc2ccco2)c2c[nH]c3ccccc23)cc1 (stereo unspecified) do in these assays?
Polio RdRp inh: 100; MbtI inh: 11; Mtb MenB inh: -50; Polio RdRp inh intensity: 90

What do the screens show for `O=C(O)CCNCc1cccs1`?
Polio RdRp inh: 102; MbtI inh: -1; Mtb MenB inh: -9; Polio RdRp inh intensity: 95

What do the screens show for `Cc1ccc(NC(=O)Cn2c(=O)n(-c3ccc(CC(=O)NCc4ccco4)cc3)c(=O)c3ccccc32)cc1`?
Polio RdRp inh: 99; MbtI inh: 13; Mtb MenB inh: 12; Polio RdRp inh intensity: 98

How did O=C(COC(=O)c1ccccc1)Nc1ccc(F)c(Cl)c1 do in these assays?
Polio RdRp inh: 101; MbtI inh: -3; Polio RdRp inh intensity: 97

How did CCOC(=O)C(C)N1CC(=O)N(c2ccccc2)C1=O (stereo unspecified) do in these assays?
Polio RdRp inh: 103; MbtI inh: -8; Mtb MenB inh: 3; Polio RdRp inh intensity: 104

What do the screens show for `O=C(NCCN1C(=O)C2C3C=CC(C3)C2C1=O)NCc1ccccc1` (stereo unspecified)?
Polio RdRp inh: 102; MbtI inh: 12; Mtb MenB inh: -7; Polio RdRp inh intensity: 98

Results for CC(C)C(=O)NCCCc1ccccc1 ?
Polio RdRp inh: 101; MbtI inh: -16; Mtb MenB inh: -14; Polio RdRp inh intensity: 104

How did Cc1ccc2[nH]c(=O)c(-c3nc4c(C)cccn4c3NCc3ccco3)cc2c1 do in these assays?
Polio RdRp inh: 103; MbtI inh: 6; Mtb MenB inh: -21; Polio RdRp inh intensity: 103

How did CCCn1c(SCC(=O)C(C)(C)C)nc2ccccc21 do in these assays?
Polio RdRp inh: 102; MbtI inh: 0; Polio RdRp inh intensity: 108

What do the screens show for `CCOc1ccccc1NC(=O)CN1CCC(NC(=O)Nc2ccccc2)CC1`?
Polio RdRp inh: 102; MbtI inh: -6; Mtb MenB inh: -31; Polio RdRp inh intensity: 102

Results for CCOC(=O)c1c(NC(=O)CSc2nnc(-c3ccco3)o2)sc(C)c1C ?
Polio RdRp inh: 100; MbtI inh: 50; Mtb MenB inh: -38; Polio RdRp inh intensity: 103

How did CC(=O)NCCC(=O)Nc1nccs1 do in these assays?
MbtI inh: -25; Mtb MenB inh: -16

What do the screens show for `CCN(CC)c1ccc(C(F)(F)F)cc1N`?
Polio RdRp inh: 102; MbtI inh: 31; Mtb MenB inh: -15; Polio RdRp inh intensity: 102

How did O=C(OCc1cc(=O)n2cc(Br)ccc2n1)c1ccc2c(=O)n3c(nc2c1)CCC3 do in these assays?
Polio RdRp inh: 97; MbtI inh: -9; Mtb MenB inh: -4; Polio RdRp inh intensity: 102

Results for Cc1ccc(-c2nnc(NC3CCCC3)s2)cc1 ?
Polio RdRp inh: 103; MbtI inh: 39; Mtb MenB inh: -33; Polio RdRp inh intensity: 100

Results for CC1(C)NC(=O)N(CC(O)CN2C(=O)NC(C)(C)C2=O)C1=O ?
Polio RdRp inh: 100; MbtI inh: -20; Mtb MenB inh: 3; Polio RdRp inh intensity: 103

Results for CCc1c(C)c(C#N)c2nc3ccccc3n2c1NC1CCCC1 ?
Polio RdRp inh: 101; MbtI inh: -8; Mtb MenB inh: -14; Polio RdRp inh intensity: 102

What do the screens show for `O=C(C1CCCN1S(=O)(=O)c1ccc(Cl)c(Cl)c1)N1CCOCC1` (stereo unspecified)?
Polio RdRp inh: 104; Mtb MenB inh: -7; Polio RdRp inh intensity: 110

What do the screens show for `Cc1ccc(NC(=S)N(Cc2cccc(C)c2)c2ccccn2)cc1`?
Polio RdRp inh: 101; MbtI inh: -11; Mtb MenB inh: -71; Polio RdRp inh intensity: 106

Results for CCN(CC)C(=S)SSC(=S)N(CC)CC ?
Polio RdRp inh: 99&98; MbtI inh: 98*; Mtb MenB inh: 3&-5; Polio RdRp inh intensity: 103&101

Results for CN(C)S(=O)(=O)c1cccc(COc2ccc(C#N)cc2)c1 ?
Polio RdRp inh: 100; MbtI inh: -12; Mtb MenB inh: -11; Polio RdRp inh intensity: 100

What do the screens show for `CCOC(=O)C1=C(C)N(C)C(=S)N(C)C1c1ccc(OC)cc1` (stereo unspecified)?
Polio RdRp inh: 103; MbtI inh: 8; Mtb MenB inh: 8; Polio RdRp inh intensity: 97

How did Cc1c(C(=O)Nc2ccccc2)csc1-c1ccccc1 do in these assays?
Polio RdRp inh: 102; Mtb MenB inh: -20; Polio RdRp inh intensity: 106

What do the screens show for `O=C(OCC(=O)N1CCCCC1)c1ccccc1Cc1ccccc1`?
Polio RdRp inh: 102; MbtI inh: -9; Polio RdRp inh intensity: 106

How did CC1CCCCN1C(=O)CN1C(=O)CC(c2ccccc2)=Nc2ccccc21 (stereo unspecified) do in these assays?
Polio RdRp inh: 103; MbtI inh: -10; Mtb MenB inh: -58; Polio RdRp inh intensity: 103

How did CCCC(=O)N1N=C(c2ccc(C)cc2)OC1c1ccc(OC)cc1 (stereo unspecified) do in these assays?
Polio RdRp inh: 100; MbtI inh: 22; Mtb MenB inh: 5; Polio RdRp inh intensity: 104

Results for CN1C(=O)CSC1=Nc1ccc(F)cc1 ?
Polio RdRp inh: 103; MbtI inh: 0; Mtb MenB inh: 25; Polio RdRp inh intensity: 109

Results for COC(=O)CON1C(=O)c2ccccc2C1=O ?
Polio RdRp inh: 103; MbtI inh: 8; Mtb MenB inh: -12; Polio RdRp inh intensity: 100

Of the compounds above, these have an aryl thioether with sulfur outside any ring.
How did Cc1cc(C)c(C#N)c(SCSCc2ccccc2)n1 do in these assays?
Polio RdRp inh: 105; MbtI inh: 7; Mtb MenB inh: -14; Polio RdRp inh intensity: 102

How did CCCn1c(SCC(=O)C(C)(C)C)nc2ccccc21 do in these assays?
Polio RdRp inh: 102; MbtI inh: 0; Polio RdRp inh intensity: 108

Results for CCOC(=O)c1c(NC(=O)CSc2nnc(-c3ccco3)o2)sc(C)c1C ?
Polio RdRp inh: 100; MbtI inh: 50; Mtb MenB inh: -38; Polio RdRp inh intensity: 103

3 entries already listed, arranged by SMILES length, largest number first:
How did O=C(OCc1cc(=O)n2cc(Br)ccc2n1)c1ccc2c(=O)n3c(nc2c1)CCC3 do in these assays?
Polio RdRp inh: 97; MbtI inh: -9; Mtb MenB inh: -4; Polio RdRp inh intensity: 102

What do the screens show for `O=C(C1CCCN1S(=O)(=O)c1ccc(Cl)c(Cl)c1)N1CCOCC1` (stereo unspecified)?
Polio RdRp inh: 104; Mtb MenB inh: -7; Polio RdRp inh intensity: 110

What do the screens show for `O=C(OCC(=O)N1CCCCC1)c1ccccc1Cc1ccccc1`?
Polio RdRp inh: 102; MbtI inh: -9; Polio RdRp inh intensity: 106

(cont.)
How did CC(NC(=O)OC(C)(C)C)c1ccccc1 (stereo unspecified) do in these assays?
Polio RdRp inh: 105; MbtI inh: -18; Mtb MenB inh: 1; Polio RdRp inh intensity: 103

How did CCCC1(C)SC(NC(C)=O)=NN1C(C)=O (stereo unspecified) do in these assays?
Polio RdRp inh: 99; MbtI inh: 1; Mtb MenB inh: -7; Polio RdRp inh intensity: 103

Results for COc1ccc2oc(=O)c(C(=O)NCc3cccnc3)cc2c1 ?
Polio RdRp inh: 104; MbtI inh: 89; Mtb MenB inh: -25; Polio RdRp inh intensity: 101

How did CC(C)(C)c1c(O)[nH]c(=S)[nH]c1=O do in these assays?
Polio RdRp inh: 97; MbtI inh: 42; Mtb MenB inh: 15; Polio RdRp inh intensity: 103

Results for C[C@H](NS(=O)(=O)c1cccc2nsnc12)C(=O)OCc1ccccc1 ?
Polio RdRp inh: 108; MbtI inh: -4; Mtb MenB inh: -27; Polio RdRp inh intensity: 112

Results for CC(C)CC(=O)Nc1ccccc1C(F)(F)F ?
Polio RdRp inh: 102; MbtI inh: -23; Mtb MenB inh: -10; Polio RdRp inh intensity: 104

Results for O=C1OC2(O)c3ccccc3C(=O)N2c2ccccc21 (stereo unspecified) ?
Polio RdRp inh: 104; MbtI inh: 6; Mtb MenB inh: -4; Polio RdRp inh intensity: 103

What do the screens show for `O=C1CN(c2ccc(OC(F)(F)F)cc2)C(=O)CN1Cc1ccc2c(c1)OCO2`?
Polio RdRp inh: 100; MbtI inh: 5; Mtb MenB inh: 6; Polio RdRp inh intensity: 102

What do the screens show for `O=C(NCc1ccc2[nH]c3c(c2c1)CCCC3)c1ccc(F)c(F)c1`?
Polio RdRp inh: 102; MbtI inh: -5; Mtb MenB inh: 11; Polio RdRp inh intensity: 105

How did COc1ccc(C(=O)n2c(=S)nc3cc(C)ccn32)cc1 do in these assays?
Polio RdRp inh: 79*; Mtb MenB inh: -16; Polio RdRp inh intensity: 76*

Results for CCOC(=O)c1ccc(CNS(=O)(=O)c2ccc(S(=O)(=O)N3CCOCC3)cc2)o1 ?
Polio RdRp inh: 107; Mtb MenB inh: 5; Polio RdRp inh intensity: 108

How did Cc1cccc(-n2c(=O)c3c4c(sc3n3c(C)nnc23)CCCC4)c1 do in these assays?
Polio RdRp inh: 101&100; MbtI inh: 0; Mtb MenB inh: 8; Polio RdRp inh intensity: 94&102

Results for CCCC(=O)N(CC)c1ccccc1C ?
Polio RdRp inh: 98; MbtI inh: -10; Mtb MenB inh: -2; Polio RdRp inh intensity: 100

What do the screens show for `COc1cccc(NCc2nnc(SCC(=O)c3ccc[nH]3)n2C2CCCCC2)c1`?
Polio RdRp inh: 105; MbtI inh: -7; Mtb MenB inh: 1; Polio RdRp inh intensity: 110

Results for CC12CCC(=O)N1C(C(=O)OCc1nc3ccccc3c(=O)n1CC#N)CS2 (stereo unspecified) ?
Polio RdRp inh: 128; MbtI inh: -8; Mtb MenB inh: -17; Polio RdRp inh intensity: 155

Among those listed so far, 3 have a CF3 group.
What do the screens show for `CCN(CC)c1ccc(C(F)(F)F)cc1N`?
Polio RdRp inh: 102; MbtI inh: 31; Mtb MenB inh: -15; Polio RdRp inh intensity: 102

Results for CC(C)CC(=O)Nc1ccccc1C(F)(F)F ?
Polio RdRp inh: 102; MbtI inh: -23; Mtb MenB inh: -10; Polio RdRp inh intensity: 104

What do the screens show for `O=C1CN(c2ccc(OC(F)(F)F)cc2)C(=O)CN1Cc1ccc2c(c1)OCO2`?
Polio RdRp inh: 100; MbtI inh: 5; Mtb MenB inh: 6; Polio RdRp inh intensity: 102

(next part)
What do the screens show for `COc1cccc(CN2CCC(N3CCCCC3)CC2)c1`?
Polio RdRp inh: 102; MbtI inh: 17; Mtb MenB inh: 6; Polio RdRp inh intensity: 98

Results for CN(C)C(=S)Nc1ccc(Cc2ccncc2)cc1 ?
Polio RdRp inh: 98; MbtI inh: 21; Mtb MenB inh: -11; Polio RdRp inh intensity: 101

What do the screens show for `CN(C)S(=O)(=O)c1ccc(=O)n(CC(=O)N2CC(=O)Nc3ccccc32)c1`?
Polio RdRp inh: 106; MbtI inh: -11; Mtb MenB inh: -19; Polio RdRp inh intensity: 108

Results for CC1C(=O)OC(c2ccccc2)C(C)(C)C1=O (stereo unspecified) ?
Polio RdRp inh: 102; MbtI inh: 4; Mtb MenB inh: 0; Polio RdRp inh intensity: 107

How did O=C(CSc1nc2ccccc2c2nc3ccccc3n12)NCCc1ccccc1 do in these assays?
Polio RdRp inh: 103; MbtI inh: 6; Mtb MenB inh: 6; Polio RdRp inh intensity: 102

High-throughput results from PubChem.
